RGS16-Gao = RGS16-Galphao interaction regulator (human); bead-based flow cytometry RGS16-Galphao binding, fluorescence; actives lie on both sides; O15492+P09471; binding response (% of control), % at 10 µM; actives 0.38% (n = 220,000);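 active = below 25% or above 175%, edge rows of some plates excepted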;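 also: Galphao activated by GDP with aluminum fluoride before binding; 100% = wells without compound and 0% = beads without RGS; some results beyond the cut were filed as inactive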
Target sequence (O15492 whole entry, looked up): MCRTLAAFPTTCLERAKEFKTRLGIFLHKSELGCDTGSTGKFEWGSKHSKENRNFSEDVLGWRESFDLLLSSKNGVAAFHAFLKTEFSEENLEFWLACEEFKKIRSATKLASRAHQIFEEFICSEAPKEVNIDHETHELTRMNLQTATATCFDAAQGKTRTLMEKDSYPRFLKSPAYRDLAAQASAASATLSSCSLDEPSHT
Target sequence (P09471 whole entry, looked up): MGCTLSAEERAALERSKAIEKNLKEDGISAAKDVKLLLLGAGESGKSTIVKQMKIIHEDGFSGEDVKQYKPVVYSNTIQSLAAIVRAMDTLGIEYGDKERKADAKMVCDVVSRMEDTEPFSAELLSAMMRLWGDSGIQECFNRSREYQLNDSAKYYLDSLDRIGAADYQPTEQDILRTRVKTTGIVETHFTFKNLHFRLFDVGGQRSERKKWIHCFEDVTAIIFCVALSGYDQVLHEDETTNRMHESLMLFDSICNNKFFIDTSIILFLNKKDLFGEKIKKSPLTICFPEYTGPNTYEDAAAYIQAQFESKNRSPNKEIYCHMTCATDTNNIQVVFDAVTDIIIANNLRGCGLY
HSV replic up = increases HSV replication in cells; HSV replication augmentation in cells, fold increase; actives 0.005% (n = 220,000); maximum fold increase;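 active = peak rise of 1.5-fold or more in the series; inconclusive = self-fluorescent or not available for retest; tested in PC3 cells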;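 also: first round at 10 µM; read as green reporter fluorescence; hits show the peak of a series up to 25 µM; 1 = signal of infected wells without compound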
PKD1 kinase inh = PKD1 (human) kinase inhibition. inhibition, %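 (about 10 µM by stock and volumes)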. PKD1 kinase fluorescence polarization assay. Q15139. actives 0.056% (n = 200,000);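 active = inhibition of 50% or more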;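 also: controls were vehicle for no effect and a reference inhibitor for full effect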
GALR2 ag = GALR2 (human) receptor agonism | actives 0.48% (n = 140,000) | O43603 | GALR2-expressing cells, agonist activation read-out | activation, %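 (tested at 5 µM)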;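 active = above mean plus 3 SD of all compounds, about 5% in these data, not always enough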;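 also: 0% = vehicle buffer wells and 100% = reference agonist at full effect; tested in CHO reporter cells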
Target sequence (O43603 whole entry, looked up): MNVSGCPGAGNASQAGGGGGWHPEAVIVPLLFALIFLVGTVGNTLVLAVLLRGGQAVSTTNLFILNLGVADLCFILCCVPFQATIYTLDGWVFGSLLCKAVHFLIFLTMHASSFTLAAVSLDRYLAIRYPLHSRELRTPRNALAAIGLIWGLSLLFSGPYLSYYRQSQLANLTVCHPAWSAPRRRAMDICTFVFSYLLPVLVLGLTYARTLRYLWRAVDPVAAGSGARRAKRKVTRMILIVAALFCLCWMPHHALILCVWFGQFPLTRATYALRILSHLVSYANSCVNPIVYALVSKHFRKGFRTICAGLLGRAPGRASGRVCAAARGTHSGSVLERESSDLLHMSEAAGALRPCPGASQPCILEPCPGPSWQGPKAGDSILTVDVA
Insulin prom inh = TRM-6 insulin promoter activity inhibition. actives 0.9% (n = 130,000). TRM-6 cells (human fetal islet line), insulin promoter-eGFP reporter, imaging; reporter expression induced with tamoxifen. inhibition, % at 2 µM. AID 1273;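 active = inhibition above the mean plus 3 SD, with well images judged a real hit on visual review, cut at about 60% in these data, passing the limit was not always enough; inconclusive = inhibition over the cutoff but images rejected on review; inactive = inhibition not above the cutoff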
Insulin prom inh cell count = second read-out of Insulin prom inh, no call of its own (marks repeat the call); normalized cell count, %; measured here: cell count, toxicity; reference of the scale not given here;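 cells exposed to compound for 48 h; stained nuclei by imaging scaled within each plate; lower means fewer cells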
HSV replic up primary fold = also measured in HSV replic up; calls as there; fold increase; compound at 10 µM; measured here: primary screen fold increase 10 uM; tested in PC3 cells;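 GFP signal in the first replicate; 1 = infected wells without compound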
Starred values were filed as active, the others as inactive; i = inactive; ? = inconclusive; nt = not tested or not shown.

SMILES | RGS16-Gao | HSV replic up | HSV replic up primary fold | PKD1 kinase inh | GALR2 ag | Insulin prom inh | Insulin prom inh cell count
O=C(Cn1cnc2c(nnn2-c2ccccc2)c1=O)NCc1ccc(F)cc1 | 97 | i | 0.59 | -4 | nt | nt | nt
O=C(Cc1cccs1)Nc1nc(-c2cccnc2)cs1 | 103 | ? | nt | nt | nt | nt | nt
CC(C)(C)NCc1ccccc1OCc1cccs1 | 102 | i | 0.81 | -1 | 0.6 | 5 | 131
CS(=O)(=O)N(CCC#N)Cc1ccc(C=O)o1 | 100 | i | 0.98 | -5 | nt | 6 | 111
CCc1nc(SCC(=O)NCCc2ccccc2)c2oc3ccccc3c2n1 | 98 | i | 0.95 | -9 | -0.9 | 16 | 113
COc1cc(C(=O)Nc2ccc3c(c2)CCN3C(C)=O)cc(OC)c1OC | 170 | i | 0.81 | -3 | nt | nt | nt
CCOC(=O)c1c(NC(=O)CSc2nnc(-c3ccncc3)n2Cc2ccco2)sc(C(C)=O)c1C | nt | nt | nt | 0 | -2.5 | 22 | 105
CCCn1ncc(CN2CCC(CO)(CC3CCCCO3)CC2)c1C (configuration not stated) | 107 | i | 0.71 | 1 | nt | nt | nt
c1ccc(CCn2nnnc2C(c2cccnc2)N2CCN(c3ccccc3)CC2)cc1 (configuration not stated) | 80 | i | 0.73 | -18 | -3.0 | nt | nt
c1ccc(SCCOCCN2CCc3ccccc3C2)cc1 | 105 | i | 0.95 | 0 | -1.0 | -17 | 120
O=c1cc(C(F)(F)F)[nH]c(=O)n1C1CCCCC1 | 98 | i | 0.91 | -5 | -1.3 | nt | nt
CCN(C(=O)COC(=O)c1cc(-c2ccc3cc(OC)ccc3c2)nc2ccccc12)C1CCS(=O)(=O)C1 (configuration not stated) | 99 | i | 0.94 | -10 | -0.1 | 24 | 112
Cn1ccc(NC(=O)Nc2cccc(C(F)(F)F)c2)n1 | 100 | i | 0.96 | -4 | nt | nt | nt
CCOC(=O)c1ccc(N2CN(C3CCCCC3)CNC2=S)cc1 | 99 | i | 1.1 | -15 | -1.0 | 21 | 64
CCOc1ncccc1C(=O)N=C1SCCN1C(=O)c1cccnc1OCC | 102 | i | 1 | -2 | nt | nt | nt
N=C1S/C(=C\c2ccco2)C(=O)N1c1nccs1 | 90 | i | 1.1 | -7 | nt | nt | nt
CC(C)(C)C(=O)/C=C/c1ccc(Oc2ccccc2)cc1 | 109 | i | 0.83 | nt | nt | nt | nt
CC1CN(C(c2cccs2)c2sc3ncnn3c2O)CC(C)O1 (configuration not stated) | 101 | i | 0.77 | -11 | -2.3 | nt | nt
Cc1ccc(C)c(N2CCN(C(=O)Cn3cccc3)CC2)c1 | 95 | i | 0.92 | -18 | -1.5 | nt | nt
CS(=O)(=O)Nc1nc2n(n1)C(c1ccc(F)cc1)CC(c1ccccc1)N2 (configuration not stated) | 110 | i | 1 | nt | nt | nt | nt
COc1ccc(CNC(=O)CN(Cc2ccc(OC)cc2)C(=O)c2csnn2)cc1 | 101 | i | 1 | -9 | nt | nt | nt
c1ccc(-c2ccc(C3CCCN3)cc2)cc1 (configuration not stated) | 96 | i | 0.84 | nt | nt | nt | nt
O=C(c1ccc(Cn2cc(Br)cn2)cc1)N1N=C(C(F)F)CC1(O)C(F)F (configuration not stated) | 115 | i | 0.98 | 12 | -1.6 | -13 | 51
O=C(c1cc2nc(-c3ccccc3)cc(-c3ccccc3)n2n1)N1CCCC1 | 96 | i | 0.98 | -1 | nt | nt | nt
O=C1OCC/C1=C\c1ccc(O)cc1 | 103 | i | 1.2 | nt | nt | nt | nt
Cc1ccccc1OCC(=O)N/N=C/c1ccc(Sc2nc3ccccc3s2)o1 | 103 | i | 0.98 | -3 | -2.1 | 27 | 86
CC1(C)C2CCC1(CS(=O)(=O)N1CCOCC1)C(=O)C2 (configuration not stated) | 97 | i | 0.91 | -5 | -1.0 | -28 | 150
Cc1noc(C)c1COC(=O)/C=C/c1ccccc1Cl | 106 | i | 0.92 | -6 | nt | -25 | 95
COC(=O)c1sc(NC(=O)c2ccc(C)o2)nc1C | 69 | i | 0.98 | -8 | -1.2 | 14 | 61
CCCCCCCCNC(=O)c1cnsn1 | 107 | i | 0.99 | 8 | -2.4 | nt | nt

4 entries from above in a different format:
Compound: COc1ccc(CNC(=O)CN(Cc2ccc(OC)cc2)C(=O)c2csnn2)cc1
  RGS16-Gao: 101 | HSV replic up: i | HSV replic up primary fold: 1 | PKD1 kinase inh: -9 | GALR2 ag: nt | Insulin prom inh: nt | Insulin prom inh cell count: nt

Compound: c1ccc(-c2ccc(C3CCCN3)cc2)cc1 (configuration not stated)
  RGS16-Gao: 96 | HSV replic up: i | HSV replic up primary fold: 0.84 | PKD1 kinase inh: nt | GALR2 ag: nt | Insulin prom inh: nt | Insulin prom inh cell count: nt

Compound: O=C(c1ccc(Cn2cc(Br)cn2)cc1)N1N=C(C(F)F)CC1(O)C(F)F (configuration not stated)
  RGS16-Gao: 115 | HSV replic up: i | HSV replic up primary fold: 0.98 | PKD1 kinase inh: 12 | GALR2 ag: -1.6 | Insulin prom inh: -13 | Insulin prom inh cell count: 51

Compound: O=C(c1cc2nc(-c3ccccc3)cc(-c3ccccc3)n2n1)N1CCCC1
  RGS16-Gao: 96 | HSV replic up: i | HSV replic up primary fold: 0.98 | PKD1 kinase inh: -1 | GALR2 ag: nt | Insulin prom inh: nt | Insulin prom inh cell count: nt

Additional structures follow.
SMILES | RGS16-Gao | HSV replic up | HSV replic up primary fold | PKD1 kinase inh | GALR2 ag | Insulin prom inh | Insulin prom inh cell count
CC(=O)Nc1c(O)nc(SCC(=O)Nc2c(C)cccc2C)[nH]c1=O | 101 | i | 0.89 | -9 | -1.5 | 43 | 91
CCCN1CCN(C(=O)Nc2ccc(OCC)cc2)CC1 | 108 | i | 0.91 | 2 | nt | nt | nt
O=C(O)C(c1ccccc1)C1(O)CCCCC1 (configuration not stated) | 105 | i | 1.2 | nt | nt | nt | nt
O=C(c1cc(-c2ccco2)on1)N1CCCc2ccccc21 | 96 | i | 0.94 | 5 | -3.6 | nt | nt
CCOc1cc2[nH]c(=S)n(CCCCC(=O)NCc3ccco3)c(=O)c2cc1OCC | 99 | i | 1.1 | -9 | 2.2 | 23 | 111
COC(=O)c1cc(S(=O)(=O)N2CCC(C(N)=O)CC2)oc1C | 103 | i | 1.1 | nt | nt | nt | nt
Cc1ccc2oc(=O)n(CC(=O)c3ccc(F)cc3)c2c1 | 100 | i | 0.96 | nt | nt | nt | nt
Cc1ccc(OC(=O)C(C)c2cccc(C(=O)c3ccccc3)c2)cc1 (configuration not stated) | 104 | i | 0.91 | 0 | -2.3 | nt | nt
O=C(Cc1cc(=O)[nH]c(=O)[nH]1)NCCN1CCOCC1 | 210 | i | 0.94 | -2 | -1.7 | nt | nt
CCCOC1(NC(=O)c2ccccc2)C(C)=CC(=O)C=C1C | 92 | i | 1 | 8 | -3.7 | -7 | 67
COc1ccc(C(=O)Nc2nc(N)n(-c3ccccc3)n2)cc1OC | 128 | i | 1.1 | 1 | -2.5 | nt | nt
CCC1CCCCN1CC(O)Cn1c2ccccc2n2c(=O)cc(C)c(C#N)c12 (configuration not stated) | 115 | i | 0.73 | 7 | -1.2 | nt | nt
COc1ccc(Cn2nnnc2CN2CCC(O)(c3ccccc3F)CC2)cc1 | 106 | i | 0.97 | 2 | nt | nt | nt
CNC(=O)c1cn(-c2ccccc2)c(=O)c2ccccc12 | 102 | i | 0.83 | -2 | -0.7 | -29 | 146
O=C(c1cc2ccccc2oc1=O)N(Cc1cccs1)C1CCS(=O)(=O)C1 (configuration not stated) | 105 | i | 0.9 | -8 | -3.3 | -179 | 77
COC(=O)C(C)Oc1ccc(Oc2nc(Cl)ccc2Cl)cc1 (configuration not stated) | 97 | i | 1.1 | -3 | nt | nt | nt
Cc1ccc2c(c1)[nH]c1c(=O)n(Cc3ccccn3)cnc12 | 104 | i | 0.95 | 9 | -0.6 | -19 | 70
CCc1ccc(CSc2nccn2-c2ccccc2)cc1 | 98 | i | 0.84 | -9 | -1.4 | 20 | 58
CCOc1ccc2nc(N3CCC(C(=O)NCCCN4CCOCC4)CC3)sc2c1 | 99 | i | 0.98 | nt | nt | nt | nt
O=C(NCC(c1ccc(F)cc1)N1CCOCC1)c1ccc(C(=O)c2ccccc2)cc1 (configuration not stated) | 105 | i | 0.96 | nt | nt | nt | nt
O=C(Oc1c(Cl)cc(Cl)c2cccnc12)N1CCOCC1 | 102 | i | 0.95 | -9 | -0.5 | 8 | 92
CCNc1nc(C)nc2c1oc1ccccc12 | 105 | i | 1.3 | 17 | -0.5 | nt | nt
Cc1ccc(NS(=O)(=O)c2ccc(Cl)c(C(=O)Nc3ccccc3-c3nc4ccccc4[nH]3)c2)cc1C | 88 | i | 0.6 | -11 | 0.6 | nt | nt
CSc1sccc1/C=N/O | 96 | i | 1.1 | nt | nt | nt | nt
CCOC(=O)c1cn(CC)c2ccc(S(=O)(=O)N3CCC(C)CC3)cc2c1=O | 120 | i | 0.94 | -10 | -2.9 | -33 | 117
CN1CCN(S(=O)(=O)c2ccc(SCCOc3ccccc3)nc2)CC1 | 99 | i | 0.95 | -6 | 0.2 | -23 | 110
COCCNC(=O)CSc1nc2ccc(N3CCOCC3)cc2c(=O)n1CCc1ccccc1 | 102 | i | 0.82 | -9 | 0.2 | nt | nt
Cc1cc(NC(=O)C2=C(O)c3ccccc3S(=O)(=O)N2C)no1 | 94 | i | 1 | 4 | -0.6 | -59 | 102
COc1ccc(-c2ccc(=O)n(CC(=O)Nc3nnc(C(C)C)s3)n2)cc1OC | 102 | i | 0.93 | -5 | -1.0 | 31 | 84
O=c1c2c3c(sc2nc2n1CCCCC2)C(O)CCC3 (configuration not stated) | 101 | i | 1.1 | 6 | nt | nt | nt
CCNc1ccc2noc3c2c1C(=O)c1ccccc1-3 | 43 | nt | nt | 41 | 1.5 | -371 | 100
CC(C)(C)n1nnnc1C(c1ccc(Cl)cc1)N1CCCc2ccccc21 (configuration not stated) | 109 | i | 1.1 | 2 | 0.7 | 8 | 306
CCOC(=O)C(NCCCCl)c1ccccc1 (configuration not stated) | 91 | i | 0.92 | -2 | -0.4 | -4 | 202
Cc1c(NC(=O)C2CCCN2C(=O)c2cccs2)c(=O)n(-c2ccccc2)n1C (configuration not stated) | 103 | i | 0.88 | 2 | -0.2 | nt | nt
COc1cc(C(=O)N/C(=C\c2cn(C)c3ccccc23)C(=O)NCCCO)cc(OC)c1OC | 101 | i | 0.98 | -5 | nt | -25 | 54
COC(=O)C(C(=O)OC)c1ncc(C(F)(F)F)cc1Cl | 95 | i | 0.9 | 1 | nt | 38 | 112
O=c1[nH]c2ccccc2nc1CCc1ccccc1 | 102 | i | 0.9 | -5 | nt | nt | nt
N#Cc1c(-c2ccncc2)c2c([nH]c1=O)-c1ccccc1OC2 | 99 | i | 0.96 | nt | nt | nt | nt
O=C(O)COCCN1CCN(C(c2ccccc2)c2ccc(Cl)cc2)CC1 (configuration not stated) | 102 | i | 0.95 | -9 | -2.1 | 31 | 123
CCC(C)Nc1nc2c(c(=O)n(C)c(=O)n2C)n1Cc1ccc(F)cc1 (configuration not stated) | 105 | i | 1 | -9 | 0.8 | -97 | 73
COc1cc(C(=O)NCC(=O)OCCN2C(=O)c3ccccc3C2=O)cc(OC)c1OC | 99 | i | 0.97 | -2 | nt | nt | nt
Cc1ccc(C)c(NC(=S)NC23CN4CN(CN(C4)C2)C3)c1 | 107 | i | 0.9 | 0 | nt | -38 | 106
CC(=O)c1ccc(S(=O)(=O)Nc2ccc(-c3ccc4nnc(C)n4n3)cc2)cc1 | 100 | i | 0.83 | 12 | nt | nt | nt
Clc1ccc(-c2cnc3n2CCC3)cc1 | 100 | i | 0.83 | 2 | -0.7 | 35 | 170
O=C(Nc1cc(C(=O)N2CCCC2)ccc1N1CCCC1)c1ccccc1 | 94 | i | 1.1 | -20 | -0.3 | -169 | 68
Cc1cc(C)c2c(N)c3ccccc3nc2n1 | 100 | i | 0.59 | 14 | 2.4 | -83 | 102
Cc1nnc(SCC(=O)Nc2ccc3c(c2)COC3=O)n1-c1ccccc1 | 83 | i | 1 | -9 | -1.3 | nt | nt
COc1cc(C(=O)Nc2ccc(S(=O)(=O)N3CCCCC3C)cc2)cc(OC)c1OC (configuration not stated) | 102 | i | 0.8 | 1 | -0.2 | nt | nt
CCSC1=C(C#N)C(c2cccc(O)c2)CC(=O)N1 (configuration not stated) | 42 | i | 1.1 | 1 | -1.3 | nt | nt

Whole records, quoted from the list. Values in the order: RGS16-Gao, HSV replic up, HSV replic up primary fold, PKD1 kinase inh, GALR2 ag, Insulin prom inh, Insulin prom inh cell count
`COc1cc(C(=O)Nc2ccc(S(=O)(=O)N3CCCCC3C)cc2)cc(OC)c1OC` (configuration not stated) is listed with 102, i, 0.8, 1, -0.2, nt, nt
`Cc1cc(C)c2c(N)c3ccccc3nc2n1` is listed with 100, i, 0.59, 14, 2.4, -83, 102
